HPGD inh = blocks human HPGD enzyme activity | Potency, µM, without a hit: at the top dose activity change, negative = inhibition, usual class: inhibitors | AID 894 | P15428 | purified HPGD, NADH fluorescence kinetic, PGE2 substrate | hit rate 4.3% among 150,000; active = well fitted inhibition curve with a large enough effect (not every such curve was filed as active); inconclusive = small, poorly fitted or top-dose-only effect, or another doubt; inactive = no such curve, though single readings can be large or run the other way;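 further: top concentration of the series not given in the record; plate controls included wells without enzyme; inactives centre near -10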
Target sequence (P15428 whole entry, looked up): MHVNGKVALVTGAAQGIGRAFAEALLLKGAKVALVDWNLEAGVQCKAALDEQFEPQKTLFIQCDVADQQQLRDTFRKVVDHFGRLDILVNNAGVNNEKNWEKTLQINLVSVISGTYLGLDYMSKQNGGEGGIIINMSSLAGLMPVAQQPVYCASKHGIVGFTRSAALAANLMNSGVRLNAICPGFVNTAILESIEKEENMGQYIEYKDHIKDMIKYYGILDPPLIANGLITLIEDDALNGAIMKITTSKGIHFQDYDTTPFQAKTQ
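NADH formation kinetics: reaction with 30 uM PGE2 and 1 mM NAD+ (final), 20 nM enzyme, Tris-HCl pH 8 with Tween 20, after 15 min compound preincubation at room temperature. Fluorescence change, last versus first of five reads.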
* hit, by the source's call; ? = inconclusive; & = joins results of further samples. On the % scale 0 is the no-effect control and ±100 the full control effect; potency means the concentration at half of the fitted maximal effect. These rows are one share of the data; count on the stated rates, not on these rows.

SMILES	HPGD inh
Cc1nn(C)c(C(=O)Nc2ccc(Cn3cccn3)cc2)c1[N+](=O)[O-]	-14.2%
O=C(C1CC1)N1CCN(c2nc3ccccc3s2)CC1	-14.8%
COCCCNS(=O)(=O)c1ccc2c3c(cccc13)C(=O)S2	?
O=c1oc2ccccc2c(N2CCCCC2)c1[N+](=O)[O-]	-10.1%
CCCOc1ccc(N2CC(C(=O)Nc3ccccc3OC)CC2=O)cc1 (stereo not drawn)	-3.1%
Cc1cc(NC(=O)C(C)Oc2ccc(Cl)cc2Cl)n(-c2ccccc2)n1 (stereo not drawn)	-8.5%
O=C(N(c1ccccc1)c1ccccc1)n1ccnc1	-2.5%
CCOC(=O)C1=C(c2ccccc2)N=C2SCC(=O)N2C1c1ccc(OCC)c(OCC)c1 (stereo not drawn)	-12.1%
Cc1cc(Br)cc(C)c1NC(=O)c1ccccc1[N+](=O)[O-]	3.2%
CC1=C(C(=O)N2CCOCC2)C(c2cc(C)cs2)NC(=O)N1 (stereo not drawn)	-5.5%
CC(C)OC(=O)[C@H]1[C@H](c2ccc(Cl)cc2)[C@@](C#N)(C(N)=O)[C@@H]2C=CC(C(N)=O)=CN21	-11.4%
COc1ccccc1/C=N/NC(=O)C(=O)Nc1ccccc1OC(F)(F)C(F)F	-13.8%
COc1ccc(C2Nc3ccccc3C(=O)N2O)cc1OC (stereo not drawn)	2.3%
CCCC(=O)Nc1cc(C(=O)O)ccc1S(=O)(=O)c1ccc(C)cc1	-17.5%
CC1=C(C(=O)Nc2ccc(C)cc2C)C(c2ccc(C)o2)NC(=O)N1 (stereo not drawn)	-2.0%
COC(=O)[C@@]1(Cc2ccc(OC)cc2)[C@H]2c3cc(C(=O)N(C)C)n(Cc4ccc(Cl)c(C(F)(F)F)c4)c3C[C@H]2CN1C(=O)c1ccccc1	-8.9%
CC(C)CN(CCNC(=O)CC1Oc2ccccc2NC1=O)CC(C)C (stereo not drawn)	0.3%
Cc1ccc(-c2nnc(N(C)C(=O)c3cccnc3)s2)cn1	-13.9%
Cc1ccc(-c2nn[nH]n2)o1	1.1%
O=C(O)C1CN(CCCP(=O)(O)O)CCN1 (stereo not drawn)	-25.8%

Another view of part of the listing above.
Cc1ccc(-c2nn[nH]n2)o1
  HPGD inh = 1.1%

O=C(O)C1CN(CCCP(=O)(O)O)CCN1 (stereo not drawn)
  HPGD inh = -25.8%

Later entries.
SMILES	HPGD inh
Cc1ccccc1CN1CCN(CC(=O)NCc2ccccc2)C1=O	-5.1%
O=C(NCC1CCCO1)C(=O)NCC(c1ccco1)N1CCN(c2ccccc2)CC1 (stereo not drawn)	-2.8%
O=C(O)/C=C(\CC(=O)O)C(=O)O	-6.5%&-8.7%
CCOC(=O)CNc1nnc(SCC(=O)OCC)[nH]c1=O	-15.6%
COC(=O)c1c(C(=O)OC)c(-c2ccc(Cl)c(Cl)c2)n2c1CCC2	?
C=CCn1nnnc1SCC(=O)Nc1cccc(OC)c1	-4.2%
COc1ccc(S(=O)(=O)N2CCC(C(=O)OCC(=O)c3ccccc3)CC2)cc1[N+](=O)[O-]	-11.7%
Cc1ccccc1N1CC(c2nc3ccccc3[nH]2)CC1=O (stereo not drawn)	0.6%
CN(C)c1nc(N)nc(N(c2ccccc2)c2ccccc2)n1	-1.9%
Cc1ccc(NC(=O)NCCN2C(=O)C3C4C=CC(C4)C3C2=O)cc1 (stereo not drawn)	-17.4%
CCN(Cc1ccccc1)C(c1cc2cc(C)ccc2[nH]c1=O)c1nnnn1CCOC (stereo not drawn)	-9.6%
COC(=O)c1cc2c(C)[nH]c(C)c2cc(C(=O)OC)c1=O	-6.8%
CCOc1cc(NC(=S)Nc2ccccc2)c(OCC)cc1NC(=O)c1ccccc1	-12.5%
Cn1cc(Br)c(C(=O)N/N=C/c2cccc(OC3CSC3)c2)n1	?
Cn1cc(S(=O)(=O)Nc2ccc(Br)cc2F)c(=O)n(C)c1=O	-19.1%
COc1ccc(NC(=O)CSc2nc(NS(=O)(=O)c3ccc(C)cc3)cc(=O)[nH]2)cc1	-10.9%
O=C(Nc1cccc(F)c1)c1cccnc1N1CCOCC1	-2.9%
N=C(N)SC(c1ccccc1)c1ccccc1	-4.4%
COc1cc(NC(=O)c2cccs2)cc(OC)c1	-9.5%
CCC(C)(C)C1CCC2(CC1)NC(=O)N(CC(=O)Nc1nc(-c3ccc(C)cc3)cs1)C2=O (stereo not drawn)	-12.8%
O=S(=O)(c1cnc[nH]1)N1CCN(c2ccc(Cl)cc2)CC1	-4.3%
COC(=O)CSc1nnc(-c2ccco2)o1	-14.5%
CC(C)OCC(O)CS(=O)Cc1ccccc1 (stereo not drawn)	-12.8%
O=C(Cc1ccccc1)N1CCN(C(=O)c2ccco2)CC1	-2.5%
Cc1cnc(C(=O)Nc2cccc(S(=O)(=O)N(C)C)c2)cn1	-3.9%
CCOc1ccc2[nH]c3c(N4CCN(c5ccccn5)CC4)ncnc3c2c1	?
COc1ccc(C)cc1S(=O)(=O)Nc1ccccc1	-1.1%
Cc1onc(-c2c(Cl)cccc2Cl)c1C(=O)N1CCCc2ccccc21	-3.6%
CCc1cc(C(=O)NCCN(C)C)cs1	-9.8%
CCCS(=O)(=O)N1CCCC(C(=O)NCC2CCCO2)C1 (stereo not drawn)	-3.4%
CCOC(=O)c1ccc(NC(=O)CSc2nnc(CNc3ccc(OC)cc3)n2C)cc1	-15.7%
Cc1sc2ncnc(SCC(=O)c3ccc(Cl)s3)c2c1C	-11.7%
CN(CC(=O)N1CCc2[nH]c3ccc(F)cc3c2C1)CC1OCCO1	-0.8%
Cc1ccc(C2(C(F)(F)F)NC(=O)N3CCN=C3S2)cc1 (stereo not drawn)	-10.7%
CCCCCCC(=O)Nc1c(O)c2ccccc2[nH]c1=O	?
COc1cc(/C=C2/C(=O)NN(c3ccc(Cl)cc3)C2=O)ccc1OC(=O)c1ccco1	7.94µM*
Cc1csc2nc3ccccc3c(=O)n12	?
CCN1C(=O)/C(=C2/Sc3ccccc3N2CCCS(=O)(=O)O)SC1=S	20µM*
CCOC(=O)c1ccccc1NC(=O)CSc1cccc[n+]1[O-]	-17.7%
CCN(CC)C(C)CN1c2ccccc2Sc2ccccc21 (stereo not drawn)	?
CN=c1scc(C)n1/N=C/c1ccc(O)cc1	-17.2%
O=S(=O)(c1cnc(Cl)c(Cl)c1)N1CCCc2ccccc21	-13.0%
CC(C)C(c1nnnn1Cc1ccco1)N1CCN(C2CCCC2)CC1 (stereo not drawn)	-0.1%
CCCCN(CCCC)C(=O)c1ccccc1NC(=O)CN1C(=O)c2ccccc2C1=O	-18.2%
COc1cccc(-c2ccc(C#N)c(SCC(=O)NCCc3ccc(Cl)cc3)n2)c1	-16.6%
COc1ccc(Br)cc1S(=O)(=O)NCc1ccccc1	-4.6%
O=C(Nc1nncs1)Oc1ccccc1	-7.2%
COc1ccc(N(C)C(=O)CCS(=O)(=O)c2cccc3nonc23)cc1	-11.8%
CN(C)C(=O)Nc1ccc(Cl)c(Cl)c1	-20.9%
Nn1c(Nc2ccccc2)nc2ccccc21	-0.9%

Rewritten field by field: part of the list above.
SMILES: O=C(Nc1nncs1)Oc1ccccc1
  HPGD inh: -7.2%
SMILES: COc1ccc(N(C)C(=O)CCS(=O)(=O)c2cccc3nonc23)cc1
  HPGD inh: -11.8%

Additional entries:
SMILES	HPGD inh
CCOC(=O)c1c(C)[nH]c(C(=O)COC(=O)c2ccncc2)c1C	-13.1%
CC1CCN(C(=O)C2CCC(CNS(=O)(=O)c3cccc4cccnc34)CC2)CC1 (stereo not drawn)	0.891µM*
Clc1ccccc1/C=N/NC1=Nc2cccc3cccc1c23	-5.2%
O=C(Oc1ccccc1C(=O)N1CCOCC1)c1ccccc1	-11.7%
O=C(N/N=C/c1sc2ccccc2c1O)c1ccccc1	-6.5%
O=C(N/N=C/c1ccc2c(c1)OCO2)c1cc(-c2ccccc2Cl)nc2ccccc12	?
CC(=O)c1cccc(NS(=O)(=O)N2CCCCC2)c1	-5.0%
C=CCn1cnc2scc(-c3ccc(CC)cc3)c2c1=O	-20.9%
COc1ccccc1NC(=O)COc1ccc(C(=O)OCC(=O)N2CCCC2=O)cc1OC	-15.4%
c1c2c(cc3sc(N4CCCCC4)nc13)OCO2	22.4µM*

Reprinted at random: seven entries already listed.
SMILES	HPGD inh
C=CCn1cnc2scc(-c3ccc(CC)cc3)c2c1=O	-20.9%
O=C(N/N=C/c1sc2ccccc2c1O)c1ccccc1	-6.5%
O=C(Oc1ccccc1C(=O)N1CCOCC1)c1ccccc1	-11.7%
O=C(N/N=C/c1ccc2c(c1)OCO2)c1cc(-c2ccccc2Cl)nc2ccccc12	?
COc1ccccc1NC(=O)COc1ccc(C(=O)OCC(=O)N2CCCC2=O)cc1OC	-15.4%
Clc1ccccc1/C=N/NC1=Nc2cccc3cccc1c23	-5.2%
CC(=O)c1cccc(NS(=O)(=O)N2CCCCC2)c1	-5.0%

Additional compounds.
SMILES	HPGD inh
O=C(N/C(=C/c1cccs1)C(=O)N1CCOCC1)c1ccco1	-7.9%
O=C1c2ccccc2C(Nc2ccc(F)c(Cl)c2)N1c1ccccn1 (stereo not drawn)	-5.2%
CC(C(=O)NCC1CCCO1)N(C(=O)c1snc(C(N)=O)c1N)c1cccc(F)c1 (stereo not drawn)	?
O=C(COc1ccc(Cl)cc1)Nc1cc(S(=O)(=O)N2CCCCC2)ccc1N1CCCCC1	-18.8%
CC1Cc2nc(SCC(=O)NCc3ccco3)n(-c3ccccc3)c(=O)c2S1 (stereo not drawn)	-9.7%
NC(Cc1cc(I)c(Oc2ccc(O)c(I)c2)c(I)c1)C(=O)O (stereo not drawn)	-24.5%
Cc1cc2sc(C(=O)O)c(C)c2s1	-17.3%
COc1ccc(/C=N/n2cc(-c3ccccc3)nc2N)cc1	-28.9%
CCc1ccc(C(=O)/C=C/NCc2ccc(F)cc2)cc1	-15.1%
C(#CCN1CCOCC1)COC(c1ccccc1)c1ccccc1	-8.0%
Cc1c(C(N)=O)cc([N+](=O)[O-])cc1[N+](=O)[O-]	-0.2%
CC(NC(=O)N(Cc1ccccc1)Cc1ccc2c(c1)OCO2)(C(F)(F)F)C(F)(F)F	-21.4%
Cc1cc(Cl)ccc1OCCCC(=O)NC1CCN(C)CC1	-2.2%
CCC(CC)NC(=O)c1n[nH]c(=O)c2ccccc12	-7.3%
O=S1(=O)NC(=NCc2ccccc2)c2ccccc21	-25.4%
CCCn1c(=O)[nH]c(=O)c2[nH]cnc21	-17.8%
O=C(CSc1nnc(-c2ccccc2Cl)o1)Nc1ccc2c(c1)OCCO2	-9.8%
CCCC(C)NC(=O)C1CCN(S(=O)(=O)c2ccccc2)CC1 (stereo not drawn)	-5.5%
C=CCn1c(CSc2nc3ccccc3s2)nnc1SCC(=O)NCc1ccccc1	-5.0%
COc1ccc(CNc2ccc3cn[nH]c3c2)c(OC)c1OC	-25.2%
O=C(CN1CCN(Cc2ccccc2)CC1)c1c[nH]c2ccccc12	-7.0%
Cc1cccc(C)c1OCC(N)C(C)C (stereo not drawn)	2.0%
COc1cccc(N2CCN(C3OC(=O)c4ccccc43)CC2)c1 (stereo not drawn)	4.4%
CCOC(=O)c1ccc2[nH]c3c(c2c1)CCCC3C(=O)OCC (stereo not drawn)	-19.9%
CC(C)(C)c1nn(-c2ccccc2)c2[nH]c(=O)c(CNCc3ccc4c(c3)OCO4)cc12	-25.2%
COc1ccc(CCNC(=O)CC2SC(=NCCc3ccccc3)NC2=O)cc1OC (stereo not drawn)	-1.0%
CCOC(=O)N1CCN(C(=O)C2CCCN(Cc3nc(-c4ccc(Cl)cc4)oc3C)C2)CC1 (stereo not drawn)	-8.9%
CC(C)c1nnc(NC(=O)c2cnccn2)s1	-1.1%
COCCn1c(-c2ccc(OC)c(OC)c2)nc2ccccc21	-17.1%
CC(=O)Nc1ccc(C(=O)CSc2ncn(-c3ccccc3)n2)cc1	12.6µM*
CCOc1ccc(S(=O)(=O)Nc2nc3ccccc3nc2N2CCN(C)CC2)cc1	?
Cc1ccc(S(=O)(=O)c2c(N)n(NC(=O)c3ccco3)c3nc4ccccc4nc23)cc1	?
Cc1ccc(N2CCN(S(=O)(=O)c3ccc4c(c3)n(C)c(=O)c(=O)n4C)CC2C)cc1 (stereo not drawn)	-19.7%
Oc1ccc(C2=Nn3c(nnc3-c3ccco3)SC2)cc1O	14.1µM*
Cc1nc2nc(C)c(CCC(=O)NCCCN3CCN(c4cccc(Cl)c4)CC3)c(C)n2n1	-3.8%
CN1CCN(C2=Cc3ccccc3Oc3ccc(Cl)cc32)CC1	-16.5%
COc1ccc2c(c1OC)C(=O)OC2c1c(O)nc(SC)n(-c2ccccc2)c1=O (stereo not drawn)	-5.5%
COc1ccc(-n2c(SCC(=O)Nc3cc(C)on3)nc3c(c2=O)SCC3)cc1	-8.7%
CCOCCCNc1ccc(-c2ccccc2)nn1	-10.9%
CCc1nnc(NS(=O)(=O)c2ccc(N=Cc3c(C)[nH]n(-c4ccc(C)cc4)c3=O)cc2)s1	25.1µM*
O=C(Nc1ccccc1C(=O)OCc1nnc(-c2ccccc2)o1)c1ccco1	?
Cc1ccccc1NC(=O)C1CCC(C)(C(=O)O)C1(C)C (stereo not drawn)	-7.2%
CCOC(=O)c1ccc(-n2c(C)nc3c(cnn3-c3ccccc3Cl)c2=O)cc1	-2.7%
CC(=O)Nc1nonc1NC(=O)CSC1=NCCS1	-11.3%
CN1CCN(c2nc3c(c(=O)[nH]c(=O)n3C)n2CCOc2ccccc2)CC1	-12.0%
COc1ccc(/C=C2/SC(=S)N(CCC(=O)O)C2=O)cc1	-26.5%
Cc1oc(-c2ccccc2)nc1CC(=O)O	-11.2%
CCOc1ccc(NC(=O)CCn2cccc2)cc1	-14.1%
Cc1ccc(CC2CC(=O)N(c3ccc4c(c3)OCCO4)C2=O)cc1 (stereo not drawn)	-9.6%

From PubChem BioAssay
